Screening results from PubChem BioAssay.
Lassa entry inh: qHTS for Inhibitors of binding or entry into cells for Lassa Virus. AID 540256, 2011. Lassa virus pseudotype entry inhibition, cell reporter; control for the full effect not named in the record. Potency, µM (titrated, usually from 37.9 µM), without a hit: at the highest dose activity change, negative = inhibition, usual class: inhibitors. 300,000 tested, 1.2% active; active means well fitted inhibition curve with a large enough effect; inconclusive means small, poorly fitted or top-dose-only effect, or effect the other way; inactive means flat fitted curve, though single readings scatter; tested in HEK293 cells; note: % is set by controls: 0 for no effect and ±100 for the full control effect; nearly all actives have a fitted effect of over 50% in size; luciferase read-out
SARS PLpro yeast: qHTS of Yeast-based Assay for SARS-CoV PLP | S. cerevisiae expressing SARS-CoV PLpro, growth rescue; control for the full effect not named in the record | Potency, µM (doses to about 32.9 µM), for inactives: at the top dose activity, positive = growth rescue | 330,000 tested, 0.19% active | AID 485353, 2010; active means well fitted rising curve with a large enough effect; inconclusive means small, poorly fitted or top-dose-only effect; inactive means no such curve, though single readings can be large or run the other way; note: 0% is about no effect; nearly all actives have a fitted effect of over 55% in size; growth read by luminescence after 48 h
NS1 function inh: qHTS Assay for Inhibitors of Influenza NS1 Protein Function. S. cerevisiae slowed by influenza A NS1, growth recovery by OD600. Potency, µM (series often up to 46.1 µM), inactives show at the top dose activity, positive = more growth. 270,000 tested, 0.4% active; active means well fitted rising curve with a large enough effect; inconclusive means small, poorly fitted or top-dose-only effect; inactive means no such curve, though single readings can be large or run the other way; note: nearly all actives have a fitted effect of over 50% in size
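Compounds were scored for reversing the slow growth caused by influenza A NS1 in S. cerevisiae, measured by optical density at 600 nm. Assay medium contained 2% galactose at pH 6.0; NS1-free yeast of the same strain were the positive control.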
RE007 growth inh: qHTS Assay for Inhibitors of the HIV-1 protein Vpr; S. pombe RE007 Vpr strain, BacTiter-Glo ATP luminescence, 24 h; control for the full effect not named in the record; Potency, µM (titrated, usually from 92.2 µM), for inactives: top-dose activity change, negative = less growth; 360,000 tested, 0.21% active; AID 651644, 2012; active = well fitted falling curve with a large enough effect; inconclusive = small, poorly fitted or top-dose-only effect; inactive = no such curve, though single readings can be large or run the other way;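 note: % is set by controls: 0 for no effect and ±100 for the full control effect; nearly all actives have a fitted effect of over 50% in size; the assay follows cell death caused by Vpr and the record does not say whether a fall means rescue or toxicity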
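Fission yeast RE007 carrying one integrated HIV-1 vpr copy, seeded at OD 0.01 in PMG+AL medium with 23 nL pinned compound. Grown 24 h at 30 degrees; viability read by BacTiter-Glo luminescence after 5 min.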
Marburg entry inh: qHTS for inhibitors of binding or entry into cells for Marburg Virus | Marburg virus pseudotyped entry inhibition, cell reporter; control for the full effect not named in the record; about a third of the inactives were read at about 46 µM | 300,000 tested, 1.8% active | Potency, µM (top dose mostly 37.8 µM), for inactives: at the top dose activity change, negative = inhibition, usual class: inhibitors; active = well fitted inhibition curve with a large enough effect; inconclusive = small, poorly fitted or top-dose-only effect, or effect the other way; inactive = flat fitted curve, though single readings scatter; tested in HEK293 cells; about a fifth of its hits are not listed in these tables; note: % is set by controls: 0 for no effect and ±100 for the full control effect; luciferase read-out
Cruzain noTriton: qHTS Assay for Promiscuous and Specific Inhibitors of Cruzain (without detergent). Cruzipain (Trypanosoma cruzi), P25779. purified cruzain, Z-FR-AMC fluorescence, no detergent. Potency, µM, inactives show max response, negative = inhibition, hits mostly inhibitors. 200,000 tested, 2.3% active;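 note: plate controls were enzyme without inhibitor for no effect and buffer without enzyme for full effect; nearly all actives have a fitted effect of over 40% in size; top concentration of the series not given in the record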
Target sequence (P25779 123-467 limits assumed): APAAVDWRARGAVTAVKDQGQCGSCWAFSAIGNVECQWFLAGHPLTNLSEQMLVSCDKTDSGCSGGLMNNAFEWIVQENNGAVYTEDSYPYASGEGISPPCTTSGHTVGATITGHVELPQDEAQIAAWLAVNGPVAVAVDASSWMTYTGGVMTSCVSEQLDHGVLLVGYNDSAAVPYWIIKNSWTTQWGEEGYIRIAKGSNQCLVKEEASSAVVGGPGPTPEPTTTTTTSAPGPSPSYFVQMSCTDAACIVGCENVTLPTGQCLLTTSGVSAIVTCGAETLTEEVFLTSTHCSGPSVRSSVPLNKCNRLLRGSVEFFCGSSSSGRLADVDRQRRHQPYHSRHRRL
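Detergent-free condition (0.00005% Triton X-100) in acetate buffer pH 5.5 with DTT. 1.5 nM enzyme and compound were pre-mixed 15 min, then 2 uM Z-FR-AMC substrate added; reaction progress from fluorescence change between first and third reads (60 s).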
2A StopGo: High Throughput Screening for Foot and Mouth Disease Virus Antivirals | human cells with a luciferase reporter of 2A StopGo recoding; control for the full effect not named in the record | Potency, µM (titrated, usually from 57.9 µM), without a hit: top-dose signal change, negative = less light | 410,000 tested, 1.2% active | AID 1159524, 2015; active = well fitted falling curve with a large enough effect; inconclusive = small, poorly fitted or top-dose-only effect; inactive = no such curve, though single readings can be large or run the other way; tested in HEK293T cells; note: % is set by controls: 0 for no effect and ±100 for the full control effect; nearly all actives have a fitted effect of over 45% in size; luciferase light after 4 h
Cruzain Triton: qHTS Assay for Promiscuous and Specific Inhibitors of Cruzain (with detergent) | 200,000 tested, 0.43% active | Potency, µM, inactives show max response, negative = inhibition, usual class: inhibitors | Cruzipain (Trypanosoma cruzi), P25779 | purified cruzain, Z-FR-AMC fluorescence, 0.01% Triton | AID 1478, 2009;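 note: plate controls were neutral wells for no effect and buffer without enzyme for full effect; nearly all actives have a fitted effect of over 40% in size; top concentration of the series not given in the record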
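Z-FR-AMC hydrolysis (2 uM substrate) by cruzain (1.5 nM) monitored kinetically at ex 360/em 450 nm after 15 min room-temperature compound exposure; 0.01% Triton X-100, pH 5.5, 5 mM DTT.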
Numbers without * were called inactive; u = inconclusive; x = not tested or not shown; & = joins results of further samples; [ ] = dose if it differs, or a comment. Unless noted, calls come from the whole dose curve; as a rule, active = well fitted curve in the direction sought with a large enough effect; inconclusive = small, poorly fitted or top-dose-only effect, or another doubt; inactive = no such curve, though single readings can be large; an effect the other way counts as inactive or inconclusive. Potency is the fitted concentration of half-maximal effect.

SMILES	Lassa entry inh	SARS PLpro yeast	NS1 function inh	RE007 growth inh	Marburg entry inh	Cruzain noTriton	2A StopGo	Cruzain Triton
CCC1(C)Cc2c(sc3nc(NN)n(C)c(=O)c23)CO1 (stereo not given)	u	-3%	9%	-7%	-28%	-3%	-23%	-0.8%
CC(=O)Nc1ccccc1C(=O)C(=O)Nc1cccc(C(=O)N2CCC3(CC2)OCCO3)c1	x	4%	x	-16%	-21%[46.1 µM]	x	1%	x
Cc1ccc(/C=N/Nc2ccc3ccccc3n2)o1	5µM*	-3%	x	10%	1.3µM*	x	-17%	x
Cc1ccc(-c2nc3sc(CCNC(=O)c4ccco4)c(C)n3n2)cc1	-16%[46.1 µM]	x	x	x	x	12%	-2%	-4.5%
O=C(COC(=O)c1ccc[n+]([O-])c1)Nc1ccccc1OC(F)F	1%[46.1 µM]	3%	x	0%	7%[46.1 µM]	x	-3%	x
O=C(Nc1ccc(F)cc1)c1ccc(CSc2ccc(Cl)cc2)o1	-10%[46.1 µM]	-4%	-8%	0%	u	x	-30%	x
COc1ccc(Nc2ncnc3c2cnn3-c2cccc(C)c2)cc1OC	x	0%	3%	-1%	x	x	-4%	x
C=CCc1ccccc1OCC(=O)OCCNC(=O)c1cccnc1	14%	4%	10%	-22%	-5%	-7%	-11%	3.0%
O=C1NC(=O)N(c2ccc(F)cc2)C(=O)/C1=C/c1ccc2c(c1)CCCN2Cc1ccccc1	-13%	-2%	6%	4%	u	22%	u	-16%
CC(=O)N1c2ccc(S(=O)(=O)N3CCCC(C(=O)Nc4cc(C)cc(C)c4)C3)cc2CC1C (stereo not given)	x	-4%	20%	-2%	x	x	-18%	x
Cc1ccccc1OCc1nnc(SCc2cc(=O)[nH]c3ccccc23)n1-c1ccccc1	-20%	-3%	-6%	0%	u	-4%	-23%	-2.2%
CCCc1nc2ccccc2n2c(-c3ccc(C)cc3)c3c(=O)n(C)c(=O)n(C)c3c12	-13%[46.1 µM]	x	x	x	11%[46.1 µM]	7%	-25%	-3.4%
COc1ccc(-n2c(-c3ccco3)nc3ccccc3c2=O)cc1	u	0%	0%	3%	-20%[46.1 µM]	x	u	x
NC(=O)C1CCN(c2nc(C3CC3)nc3c2nnn3Cc2ccccc2Cl)CC1	2%	19%	-9%	-2%	0%	u	23%	1.5%
CCCn1c(SCC(=O)NCC2CCCO2)nc2c1c(=O)n(C)c(=O)n2C (stereo not given)	14%	-2%	1%	-9%	-9%	-1%	-9%	0.6%
CC1CN(C(=O)c2scc3c2OCCO3)CC(C)O1 (stereo not given)	5%	2%	3%	7%	20%[46.1 µM]	-7%	-10%	1.0%
CCNC(=O)CC1C(=O)N(c2cccc(C)c2)C(=O)N1CCC(C)C (stereo not given)	5%	2%	3%	21%	u	x	3%	x
CC(=O)Nc1ccc(Nc2cc(C)nc3c(-c4ccccc4)cnn23)cc1	u	-93%	-34%	8%	u	u	u	-7.5%
O=C(Cc1ccc(Cl)cc1)Nc1ccncc1	-17%	-1%	5%	0%	u	x	u	x
COC(=O)C(Cc1ccccc1)NC(=O)CNC(=O)c1ccc(Br)o1 (stereo not given)	-3%	0%	x	3%	-11%	x	1%	x
C=CCn1c(SCc2nc3ccccc3c(=O)[nH]2)nc2scc(C3CC3)c2c1=O	19%	0%	10%	-12%	-25%[46.1 µM]	x	-10%	x
Nc1nc2ccccc2n1C(=O)c1ccccc1	x	-2%	1%	u	x	x	-46%	x
Cc1ccccc1-c1ncc(CN2CCC(CO)(CCCc3ccccc3)CC2)cn1	x	0%	3%	2%	x	x	-30%	x
COCc1cc(CN2CCN(C)CC2)c(O)c2ncccc12	u	u	u	15%	u	-12%	-9%	-3.0%
COc1ccc(C(CNC(=O)C(C)(C)Oc2ccc(Cl)cc2)N2CCOCC2)cc1 (stereo not given)	-20%	x	x	4%	1%	x	0%	x

More entries:
SMILES	Lassa entry inh	SARS PLpro yeast	NS1 function inh	RE007 growth inh	Marburg entry inh	Cruzain noTriton	2A StopGo	Cruzain Triton
Cc1cccc(-n2nc3c(c2NC(=O)C(C)C)CSC3)c1	x	-4%	14%	-6%	x	x	11%	x
COCCNC(=O)Cn1nc(-c2ccccc2C)ccc1=O	x	-6%	8%	-4%	x	x	-9%	x
COc1ccc(CNC(=O)c2ccc(CS(=O)(=O)c3ccc(OC)cc3)o2)cc1	-25%[46.1 µM]	x	x	2%	x	2%	-3%&-12%	0.2%
CCOC(=O)C1=C(CCc2ccccc2)NC(=O)NC1c1cccc([N+](=O)[O-])c1 (stereo not given)	x	3%	-10%	4%	x	x	8%	x
O=C(O)CCNC(=O)/C(=C\C=C\c1ccccc1)NC(=O)c1ccccc1	27%	0%	-5%	24%	-9%[46.1 µM]	x	-20%	x
Cc1ccc(-c2csc3ncnc(-n4cnc5ccccc54)c23)cc1	-13%	12%	-18%	-15%	-40%	-4%	-14%	-4.0%
CCOCC(=O)Nc1ncc(S(=O)(=O)c2ccc([N+](=O)[O-])cc2)s1	12%	1%	-5%	3%	-2%[46.1 µM]	x	-27%	x
O=c1[nH]c2ccccc2nc1N1CCOCC1	-2%	-2%	-10%	-23%	-10%[46.1 µM]	-4%	-13%	2.2%
CC(C)(C)C(=O)NC(=S)Nc1sc2c(c1C#N)CCCCC2	10%	-28%	14%	4%	u	4%	32%[activator]	-9.9%
COc1cccc2c(=O)c3c(cnn3C)n(C)c12	1%	-7%	-57%	-29%	11%[46.1 µM]	u	-21%	-11%
O=C(c1cc2sccc2n1Cc1ccccc1)N1CCc2ccccc21	-1%	-4%	u	-18%	-6%	u	-24%	-3.3%
COc1ccc(S(=O)(=O)NCC(c2ccc(F)cc2)N2CCN(C)CC2)cc1 (stereo not given)	3%	-2%	x	1%	u	x	-22%	x
Cc1ccc(C2(c3noc(CN(C)CCO)n3)CCCC2)cc1	u	0%	3%	13%	-16%[46.1 µM]	x	-17%	x
Cc1cc(C)n2nc(SCC(=O)N(C)Cc3ccccc3)nc2n1	-1%	3%	5%	1%	6%	-7%	x	1.0%
O=C(CN1C(=O)c2ccccc2C1=O)Oc1ccc(Cl)cc1	7%[46.1 µM]	1%	-41%	u	-3%[46.1 µM]	x	-12%	x
COc1cc(CNC2CCCC2)cc(OC)c1	2%	6%	-3%	-12%	3%	5%	x	-0.4%
CCCn1c(=O)c(C(=O)N/N=C/c2ccccc2F)c(O)c2ccccc21	1%	1%	-9%	-3%	-9%[46.1 µM]	x	0%	x
Cc1ccc(NC(=O)CCC(=O)N2CCSc3ccccc32)cc1	24%[46.1 µM]	x	x	x	x	-4%	-12%	-4.4%
Cc1ccnc(NC(=O)CCC(=O)N(CC(=O)NCCc2ccccc2)c2ccc(F)cc2)c1	-17%	0%	-3%	7%	-25%[46.1 µM]	x	-7%	x
COc1ccc(NC2c3ccccc3C(=O)N2Cc2ccc3c(c2)OCO3)cc1 (stereo not given)	-5%	0%	2%	1%	u	x	-9%	x
COc1ccc2oc(C(=O)OCC(=O)NCC3CCCO3)c(C)c2c1 (stereo not given)	-10%	-6%	x	u	2%	x	12%	x
O=C(O)c1c(-c2ccccc2)oc2ccc(O)cc12	x	1%	0%	5%	x	x	5%	x
ON=C1c2ccccc2-c2ccccc21	x	-5%	-47%	-7%	x	x	11%	x
CC(NC(=O)/C(C#N)=C/c1ccc([N+](=O)[O-])o1)c1ccccc1 (stereo not given)	u	-18%	-133%	5µM*	u	x	28µM*	x
COc1cc(NC(=O)c2ccccc2Cl)c(OC)cc1NC(=O)CN1CCOCC1	u	-6%	-12%	1%	16%&16%	12%	u	0.1%

Next structures follow.
SMILES	Lassa entry inh	SARS PLpro yeast	NS1 function inh	RE007 growth inh	Marburg entry inh	Cruzain noTriton	2A StopGo	Cruzain Triton
O=C(Nc1ccc2oc(-c3ccccc3)nc2c1)c1ccco1	u	-50%	-20%	-10%	u	-9%	5%	-6.7%
Cc1ccc(Sc2ccncc2S(N)(=O)=O)cc1	2%	27%	0%	x	u	6%	-16%	-1.4%
CC(=O)Nc1ccc(NC(=O)CCCCCN2C(=O)c3ccccc3C2=O)cc1	15%	16%	12%	-14%	1%	-5%	-1%	3.0%
COc1cc([N+](=O)[O-])ccc1NC(=O)NN1CCN(C)CC1	x	1%	-13%	8%	x	x	-17%	x
COc1cc(NC(=O)c2cc(-c3cccs3)on2)c(OC)cc1Cl	6%[46.1 µM]	x	x	x	1%[46.1 µM]	15%	7%	-0.9%
COc1ccc(-c2ccc(=O)n(CC(=O)NCc3ccco3)n2)cc1	3%	0%	2%	21%	22%&-3%	-1%	-7%	-2.0%
Cc1ccc(-n2ncc(C(=O)Nc3ccc4c(c3)OCCO4)c2C2CCN(C(=O)OC(C)(C)C)CC2)cc1	u	x	x	x	x	-5%	u	-5.6%
COc1ccc2c(c1)c(=O)oc1cc(OCC(=O)N3CCCC(C)C3)ccc12 (stereo not given)	-3%	-13%	-2%	-18%	-8%	u	u	2.4%
COc1ccccc1-n1c(SC(C)C(=O)NCC2CCCO2)nc2cc(Cl)ccc2c1=O (stereo not given)	-10%	0%	x	-4%	-21%	x	-15%	x
O=C(CSc1nccc(=O)[nH]1)Nc1ccc(N2CCOCC2)cc1	2%	-4%	10%	17%	-11%	x	0%	x
Cc1ccccc1Nc1c(-c2cccs2)nc2cccc(C)n12	17%[46.1 µM]	x	x	x	2%[46.1 µM]	-4%	-29%	-16%
Nc1cccnc1Sc1cc(Cl)c(Cl)cc1Cl	-9%	-10%	-3%	-10%[3.69 µM]	5%	-2%	u	-5.5%
CCOc1ccc(OCCOc2ncnc3ccccc23)cc1	11%	2%	0%	-1%	6%	5%	0%	3.8%
